Bioassay records from PubChem BioAssay.
HIV TAR-Tat – HIV-1 TAR-Tat binding disruption. 0.6% of 100,000 active. z-score (no concentration beside the values). HIV-1 TAR RNA, Tat peptide displacement FRET; hits give high values;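 further: score is relative to mean and SD of negative controls; some compounds called inactive have numbers as strong as hits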
CDC25B CDK2 inh – human CDC25B-CDK2/CyclinA binding inhibition. P30305+P24941. HTRF CDC25B-CDK2/CyclinA binding, anti-His/anti-Flag; hits give high values. z-score (no concentration beside the values). 0.72% of 94,000 active. AID 1259370;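 further: score is relative to mean and SD of negative controls; strong numbers were not always called active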
An asterisk follows results filed as active; . = not tested or not shown.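 How the source made its calls: active means z-score from 3 up in half or more of its runs; inactive means the rest.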

SMILES | HIV TAR-Tat | CDC25B CDK2 inh
Cc1cc(F)ccc1S(=O)(=O)N(C(=O)C(C)C)c1ccc2oc(=O)sc2c1 | 1.2 | -2.5
CCOC(=O)c1[nH]c(C)c(C(=O)NCCC2=CCCCC2)c1C | . | 0.34
CCOc1ccccc1C1CC(c2c(O)n(C)c(=O)n(C)c2=O)=Nc2ccccc2S1 (centres undefined) | 1.4 | 0.38
Cn1cc(-c2ccccc2)c(=O)o1 | . | -1.2
CC1CCCCC1NC(=O)C1CCC(CNc2c(N3CCCCC3)c(=O)c2=O)CC1 (centres undefined) | 1.5 | -0.53
C[C@@H]1O[C@@H](OC[C@H]2O[C@@H](Oc3c(-c4ccc(O)c(O)c4)oc4cc(O)cc(O)c4c3=O)[C@H](O)[C@@H](O)[C@@H]2O)[C@H](O)[C@H](O)[C@H]1O | 11* | .
Cc1nnc(SCC(=O)Nc2ccc(F)c(F)c2)s1 | 0.71 | -3.3
Cc1ccc(-c2nn(Cc3cc(=O)n4ccccc4n3)c(=O)c3c2CCCC3)cc1 | 0.62 | -1.9
COc1ccc(/C=C2/N=C(C)OC2=O)cc1 | . | -1.1
Cc1nn2c(=O)cc(COC(=O)c3cccc(F)c3)nc2s1 | 2.1 | .
Cc1ccc(NC(=O)CSc2ncnc3c2sc2nc4c(cc23)COC(C)(C)C4)cc1 | 0.32 | .
O=C(N/N=C/c1ccc(O)cc1)c1ccccc1CO | . | -1.4
O=C1Nc2ccc(Br)cc2C1(O)Cc1ccccn1 (centres undefined) | 4.1 | -0.69
Cc1sc2c(c1C)CSC(C(=O)NCCC(C)C)=C2 | -4.8 | .
CC1CCN(S(=O)(=O)c2ccc(NC(=O)N3CCCC3)cc2)CC1 | 0.71 | .
CNC(=O)Nc1ccc2nc3n(c(=O)c2c1)CCCC3 | 1.6 | .
C=CCSc1nc2ccccc2n1C(=O)CCCN1C(=O)c2cccc3cccc(c23)C1=O | . | -2.1
Cn1cc(S(=O)(=O)N2CCc3ccccc32)cc1C(=O)Nc1ccc(F)cc1F | -0.07 | .
Cn1ncc2c(=O)n(CC(=O)Nc3ccc(F)c(Cl)c3)cnc21 | -0.25 | -1
CC1CCN(C(=O)C2=Cc3sc4c(c3CS2)CCCC4)CC1 | 1.2 | .
O=C(Nc1ccccc1)N1CCC(n2cnc3ccccc3c2=O)CC1 | 0.87 | .
COc1cc(C=Nc2ccc(C)c(C)c2)cc(OC)c1OC | . | -0.62
COc1ccccc1Nc1nc(N)nc(CSc2nc(C)cc(C)n2)n1 | 1.5 | -0.84
COc1ccc(-c2nc(-c3ccc(C)cc3)no2)cc1OC | 0.41 | -2.5
OC(CCN1CCCCC1)(c1ccccc1)c1ccccc1 | -0.67 | .
CCOC(=O)COc1cc2c(C(=O)OCC)c(-c3ccccc3)oc2cc1Br | . | -1.7
NS(=O)(=O)c1cc(C(=O)O)c(NCc2ccco2)cc1Cl | 0.84 | .
CS(=O)(=NC(=O)c1ccc(-c2ccccn2)s1)c1ccc(Cl)cc1 (centres undefined) | . | 0.97
Cn1c(=O)c2c(ncn2CC(=O)Nc2ccc(Br)cc2F)n(C)c1=O | 1.8 | -1.6
c1ccc(CCNc2ncnc3nc[nH]c23)cc1 | . | 0.96
Cc1cccc(-n2c(=O)[nH]c3c(C(N)=O)nc(-c4ccccn4)nc32)c1 | 0.94 | .
COc1ccc(NC(=O)C2Nc3ccccc3S(=O)(=O)N2)c(OC)c1 (centres undefined) | -0.38 | .
O=c1c2[nH]c3ccccc3c2ncn1CCN1CCC(Cc2ccccc2)CC1 | 2.2 | -0.19
O=C(Nc1c(C(=O)c2ccc(F)cc2)oc2ccccc12)c1csnn1 | 0.51 | -1.4
Cc1ccc(NC2=NC(c3ccccc3)n3c(nc(C)cc3=O)N2)cc1 (centres undefined) | -0.61 | -0.73
CSc1sc(C(=O)O)c(-c2cccs2)c1C#N | . | -4.8
CCc1nnc(NC(=O)Nc2cccs2)s1 | 0.35 | 2.3
Cn1ccnc1SCC(=O)Nc1ccc(F)cc1 | 0.28 | -2.8
O=C(Nc1ccccc1Cl)c1nn(-c2ccccc2)ccc1=O | 0.35 | 0.08
NC(N)=NC(N)=Nc1cc(Cl)cc(Cl)c1 | . | -1.6
CCCN1CCN(C2CCCCC2NS(=O)(=O)c2ccccc2)CC1 (centres undefined) | 2.3 | -0.12
O=[N+]([O-])c1cc(C(F)(F)F)ccc1Oc1ccc(-c2nnco2)cc1 | . | -0.91
CN1C2CCC1CC(NC(=O)CSc1nnc(N)s1)C2 (centres undefined) | . | -1.2
NC(N)=NC(N)=Nc1ccccc1C(F)(F)F | . | -1.8
Cc1sc2ncn(CC(=O)N3CCOCC3)c(=O)c2c1S(=O)(=O)N1CC(C)CC(C)C1 (centres undefined) | . | 0.16
CCOc1ccc(-c2cc(C(F)(F)F)c(C#N)c(SCCC(=O)O)n2)cc1 | -1.6 | 0.45
COc1ccccc1C1SCCN1S(=O)(=O)c1ccc(F)cc1 (centres undefined) | 2.2 | -2
CSc1ccc(N2C(=O)N3CCCN3C2c2ccccc2)cc1 (centres undefined) | 2.9 | -1.9
Brc1ccc(-c2nnc3n2N=C(c2ccccc2)CS3)cc1 | . | -1.1
O=C(CSc1nc2c(cnn2-c2ccc(F)cc2)c(=O)[nH]1)Nc1ccc2c(c1)OCCO2 | . | 4.9

(more compounds)
SMILES | HIV TAR-Tat | CDC25B CDK2 inh
Cc1cc(C)c2c(n1)SCC(=O)N2CC(=O)NCC1CCCO1 (centres undefined) | 1.5 | -0.43
Cn1c(=O)c(=O)n(C)c2cc(S(=O)(=O)CCC(=O)NC3CCCCC3)ccc21 | 2 | .
Cc1c(OCc2ccc([N+](=O)[O-])cc2)ccc2c1OC(C)(C)C=C2 | . | -1.2
Cc1ccc(C2c3c(oc4ccc(C)cc4c3=O)C(=O)N2c2nc(C)c(C)s2)cc1 (centres undefined) | -0.8 | -0.6
O=C(CCCN1C(=O)c2ccccc2C1=O)Nc1ccccc1C(=O)N1CCCC1 | . | -0.99
O=C(c1cccs1)N1CCCn2c1nc1ccccc12 | 0.38 | 0.52
COc1cc(-c2nc3ccc(Br)cc3c(=O)o2)cc(OC)c1OC | . | 0.91
COc1ccc2[nH]c(=O)c(-c3noc(-c4ccccc4C)n3)cc2c1 | 0.68 | -1.9
CSc1nn2c(=O)cc(COc3ccc(C(C)(C)C)cc3)nc2s1 | 3.1 | -1.9
N#CC(C#N)=CNc1cc(C(F)(F)F)ccc1N1CCCCC1 | . | -1.1

In another format: 14 of the compounds above
smiles	HIV TAR-Tat	CDC25B CDK2 inh
COc1ccccc1C1SCCN1S(=O)(=O)c1ccc(F)cc1 (centres undefined)	2.2	-2
CSc1ccc(N2C(=O)N3CCCN3C2c2ccccc2)cc1 (centres undefined)	2.9	-1.9
Brc1ccc(-c2nnc3n2N=C(c2ccccc2)CS3)cc1	.	-1.1
O=C(CSc1nc2c(cnn2-c2ccc(F)cc2)c(=O)[nH]1)Nc1ccc2c(c1)OCCO2	.	4.9
Cc1cc(C)c2c(n1)SCC(=O)N2CC(=O)NCC1CCCO1 (centres undefined)	1.5	-0.43
Cn1c(=O)c(=O)n(C)c2cc(S(=O)(=O)CCC(=O)NC3CCCCC3)ccc21	2	.
Cc1c(OCc2ccc([N+](=O)[O-])cc2)ccc2c1OC(C)(C)C=C2	.	-1.2
Cc1ccc(C2c3c(oc4ccc(C)cc4c3=O)C(=O)N2c2nc(C)c(C)s2)cc1 (centres undefined)	-0.8	-0.6
O=C(CCCN1C(=O)c2ccccc2C1=O)Nc1ccccc1C(=O)N1CCCC1	.	-0.99
O=C(c1cccs1)N1CCCn2c1nc1ccccc12	0.38	0.52
COc1cc(-c2nc3ccc(Br)cc3c(=O)o2)cc(OC)c1OC	.	0.91
COc1ccc2[nH]c(=O)c(-c3noc(-c4ccccc4C)n3)cc2c1	0.68	-1.9
CSc1nn2c(=O)cc(COc3ccc(C(C)(C)C)cc3)nc2s1	3.1	-1.9
N#CC(C#N)=CNc1cc(C(F)(F)F)ccc1N1CCCCC1	.	-1.1

Next part.
SMILES | HIV TAR-Tat | CDC25B CDK2 inh
COc1ccc(Nc2c(-c3ccc(SC)cc3)nc3cnccn23)cc1OC | 0.4 | -5.6
Cc1nc(-c2csc(S(=O)(=O)Nc3ccc(-c4nc5ccccc5[nH]4)cc3)c2)no1 | 1.5 | .
c1cc2c(cc1-c1nc3sc(-c4ccc5c(c4)OCO5)nc3s1)OCO2 | -0.38 | -1.4
Cc1ccc(S(=O)(=O)Nc2nc3ccccc3nc2N2CCN(C)CC2)cc1 | . | -1.4
CCn1c(SC)nc2ccccc2c1=O | 2.1 | -0.14
CC1=C(C(=O)Nc2ccccn2)C(c2ccc(Br)cc2)n2nc(-c3ccccc3)nc2N1 (centres undefined) | 2.1 | 2
COc1cccc(N2C(=O)c3cccnc3C2Nc2ccc(OC)cc2OC)c1 (centres undefined) | 0.54 | .
Cc1cc(C(=O)NNS(C)(=O)=O)nn1C(C)(C)C | . | -0.72
CC(C)NC(=O)CSC1=NS(=O)(=O)c2ccccc2N1 | 1.5 | .
CC(C(=O)NCc1ccc(Cl)cc1)n1ncn2c(cc3occc32)c1=O (centres undefined) | -0.1 | -0.29

3 compounds out of the list, ordered by SMILES length, descending.
SMILES | HIV TAR-Tat | CDC25B CDK2 inh
CC1=C(C(=O)Nc2ccccn2)C(c2ccc(Br)cc2)n2nc(-c3ccccc3)nc2N1 (centres undefined) | 2.1 | 2
COc1cccc(N2C(=O)c3cccnc3C2Nc2ccc(OC)cc2OC)c1 (centres undefined) | 0.54 | .
CCn1c(SC)nc2ccccc2c1=O | 2.1 | -0.14

(listing goes on)
SMILES | HIV TAR-Tat | CDC25B CDK2 inh
O=S(=O)(Nc1cccc2nsnc12)c1ccc(Cl)s1 | . | 1.5
CCCc1nc2nc(C)c([N+](=O)[O-])c(=O)n2[nH]1 | -0.48 | -0.1
O=S(=O)(c1cccc(-c2cn3cccnc3n2)c1)N1CCCC1 | 0.53 | -1.7
O=C(NCc1ccc2c(c1)OCO2)c1cc(=O)c2cc(Cl)ccc2o1 | 0.9 | -0.63
Fc1ccccc1C1C2=C(Nc3ncnn31)c1cc(Cl)ccc1OC2c1ccncc1 (centres undefined) | . | -1.3
CCOC(=O)c1cnc(NC2CCCC2)c2ccccc12 | 0.87 | .
O=C(NC(=S)Nc1ccc2oc(-c3c(F)c(F)c(F)c(F)c3F)nc2c1)c1ccc(Cl)cc1 | . | -2.6
COc1ccc(-n2c(/C=C/c3c[nH]c4ccc(OC)cc34)nc3ccccc3c2=O)cc1 | -1 | -1.8
CC1CCCCN1Cc1nnc(-c2ccccc2)o1 (centres undefined) | 0.77 | -0.56
CCOC(=O)c1sc(=S)n(-c2ccc(Br)cc2)c1N | 1.7 | .
Cc1ccc(-c2nnc(Nc3ccc(OCC(N)=O)cc3)c3ccccc23)cc1S(N)(=O)=O | . | -1.7
O=S1(=O)N=CNc2ccc(S(=O)(=O)N3CCOCC3)cc21 | 1.3 | .
CCCCOc1ccc(-c2csc(-c3ccccn3)n2)cc1 | -0.01 | -0.3
Cc1ccccc1NC(=O)C(C(=O)Nc1ccccc1C)c1ccccc1 | . | -1.8
CCn1nnc(NCc2c(OCc3ccc(C)cc3)ccc3ccccc23)n1 | 0.87 | .
CC1(C)Cc2c(sc(NC(=O)CN3C(=O)C4CC=C(Cl)CC4C3=O)c2C#N)CO1 (centres undefined) | 0.48 | 0.27
CCCCCNC(=O)CCCn1c(=O)[nH]c2ccc(Br)cc2c1=O | 1.1 | -1.3
O=C1c2ccccc2-c2onc3c(N4CCN(c5ncccn5)CC4)cc(NCc4ccccc4)c1c23 | 0.07 | -2.1
Cc1nn(-c2nncc(-c3ccccc3)n2)c2c1C(c1ccc(Br)c(F)c1)CC(=O)N2 (centres undefined) | 1.2 | .
O=C(c1cccc2ccccc12)N1CCC(c2nc3ccccc3s2)CC1 | -0.24 | -0.45
CCOc1ccc(Br)cc1CNCCSc1nnnn1-c1ccccc1 | -0.01 | -0.42
C=CCC(CC=C)C1C(=O)Nc2ccccc21 (centres undefined) | 1.1 | -1.9
CCOC(=O)c1[nH]c(C)c(C(=O)NCC2CCCO2)c1C (centres undefined) | . | -0.91
Cc1nc(C)c(C(=O)NNC(=O)c2ccc(C(F)(F)F)cc2)s1 | . | -1.3
CC(c1ccccc1)N1CSC2=C(C#N)C(c3cccs3)CC(=O)N2C1 (centres undefined) | 9.8* | 4.4*
O=c1c(SCc2cccc(F)c2)nccn1-c1cccc(F)c1 | 0.55 | .
CCS(=O)(=O)N1CCCC(C(=O)NCc2ccco2)C1 (centres undefined) | . | -0.07
Cc1ccc(C)n1-c1cccnc1-c1ccc(C(=O)O)cc1 | -4.3 | 1.2
CC(C)c1ccc(-c2c(NC(C)c3ccccc3)c(=O)c2=O)cc1 (centres undefined) | 2.2 | .
O=C(Nc1ccc2c(c1)OCCO2)c1cc2ccc3cccnc3c2[nH]1 | 0.75 | .
CCCNC(=O)C1CCC(Cn2c(=O)c3sccc3n(C)c2=O)CC1 (centres undefined) | -0.19 | .
Cc1ccc(CNc2ncnc3c2cnn3-c2ccc(C)c(C)c2)cc1 | 2.1 | .
Cn1c(=O)[nH]c(=O)c2cnc(-c3cccnc3)nc21 | 2.1 | -1.6
CNc1nc(-c2ccccn2)nc(C)c1Cl | . | -1.3
COC(=O)c1sc(-c2ccccc2)cc1O | 1.9 | .
O=C(NCCN(Cc1ccco1)C1CCCC1)c1noc2c1CCc1sccc1-2 | 0.58 | .
CC(C)(C)C(=O)NCC(c1cccs1)S(=O)(=O)c1cccs1 (centres undefined) | 1.3 | .
Cc1nc(S(=O)(=O)NCc2ccccc2)cn1C | 1.3 | .
CCC(=O)N1c2ccc(S(=O)(=O)CCC(=O)NCCc3sccc3C)cc2CC1C (centres undefined) | 0.63 | .
O=C(COc1ccc(Br)cc1)N(Cc1ccco1)Cc1cccs1 | 0.49 | 2
O=C(C1CCN(c2nc3ccccc3n3cccc23)CC1)N1CCN(c2ncccn2)CC1 | 1.2 | .
COc1cccc(-c2noc3ncnc(NC4CC4)c23)c1 | 0.96 | .
CCC(C)(C)NC(=O)C1CCN(c2ccc(-c3cccs3)nn2)CC1 | -0.11 | .
CCC1CN(C(=O)n2ccnc2)c2ccccc2O1 (centres undefined) | 1.6 | -0.44
